# BJeLR viability – BJeLR cell viability loss. BJeLR (HRASV12) viability, CellTiter-Glo ATP luminescence, 48 h; reference of the scale not given here. 300,000 tested, 0.17% active. AID 1554. inhibition, % (test concentration not listed);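 active = replicate mean above 50%; inconclusive = above 50% but judged a plate artefact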;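 also: 50 nL library stock added to about 25 µL; numbers are from one replicate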
# Sa ugtP lethal – growth inhibition of S. aureus ugtP deletion strain | 330,000 tested, 0.54% active | growth inhibition, % (no concentration beside the values) | S. aureus RN4220 ugtP deletion, OD600 growth, 16 h; some inactives read as strong as hits;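 active = z-score under -3 and OD600 up to 0.15 on both plates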;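 also: plate controls were untreated wells for no effect and antibiotic for full effect; wells of about 80 µL received 100 nL stock; the first replicate is given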
# Mtb hypoxia inh – reduces hypoxia-regulated biosensor signal in M. tuberculosis; 300,000 tested, 0.1% active; fluorescence inhibition, % (test concentration not listed); M. tuberculosis hypoxia-regulated fluorescent reporter, fluorescence; AID 1159583;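 active = 35 to 45% if threefold the growth effect, above 45% if 1.5-fold the growth effect; inactive = the rest, general growth blockers included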;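 also: wells of about 50 µL received 100 nL stock; 0% = vehicle wells and 100% = reference inhibitor wells; whole bacteria with a GFP reporter of the hypoxia response; strong numbers were not always called active; many hits fall short of the cut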
# Autofluor counter – compound fluorescence in toxin protease inhibitor counterscreen; compound autofluorescence counterscreen, microsphere flow cytometry; active compounds read high; 360,000 tested, 3.1% active; fluorescence intensity (no concentration beside the values);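 active = at least 3 SD above the mean of all compounds, about 16000 in these data; inconclusive = too few beads counted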;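 also: 100 nL of 1 mM stock went into each well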
# PrP 5UTR inh – suppresses PrP 5' UTR mRNA reporter expression; cell-based PrP 5' UTR mRNA reporter, plate reader; inhibition, % (concentration not given with the values); 340,000 tested, 0.35% active;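 active = every replicate at 50% or more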;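 also: 0 = median of the neutral control wells; tested in H4 reporter cells; numbers are from one replicate; inactives centre near -14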
# RN4220 kill – S. aureus RN4220 growth inhibition. OD600, 16 h. 330,000 tested, 0.33% active. inhibition, % (test concentration not listed);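 active = z-score of -3 or lower and OD600 up to 0.18 on both plates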;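 also: plate controls were untreated cells for no effect and reference antibiotic for full effect; stock transfer was 100 nL into about 80 µL; one replicate is shown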
# Mtb hypoxia inh growth – also measured in Mtb hypoxia inh; calls as there; growth inhibition, %; measured here: M. tuberculosis growth (absorbance);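 0% = vehicle and 100% = reference antibiotic; read after six days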
# Active calls of the source: *; ? = inconclusive; . = not tested or not shown.
smiles	Autofluor counter	RN4220 kill	Mtb hypoxia inh growth	Sa ugtP lethal	BJeLR viability	PrP 5UTR inh	Mtb hypoxia inh
CCOc1cc(N2CCOCC2)c(OCC)cc1NC(=O)Cn1cnc2c(=O)n(C)c(=O)n(C)c21	2260	0.9	8	4	1	-18	8
CCC(=O)OCC(=O)Nc1ccc([N+](=O)[O-])cc1OC	2583	2.4	-1	-2	2	-14	-11
O=C(Nc1ccc2nc(C3CC3)n(Cc3ccc(F)cc3)c(=O)c2c1)c1ccco1	2949	-0.2	12	0	-5	1	-7
Cc1ccc(-c2csc(NC(=O)C3CC(=O)N(Cc4ccco4)C3)n2)cc1 (configuration not stated)	4531	-0.5	1	4	-3	-21	6
Cc1cccc(NC(=S)N2CCCCCC2)c1C	5034	-0.7	3	8	.	-6	6
COc1cccc(NC(=O)CSC2=NN3CCCC(=O)N=C3S2)c1	4620	0.7	-3	-7	1	4	14
O=C(Nc1cccc(-c2nc3ccccc3o2)c1)c1cccnc1	4110	-15	-5	3	5	-21	2
O=C(NNS(=O)(=O)c1ccc(Cl)cc1)NC1CCCCC1	2677	4.1	.	-4	8	-9	.
C=CCNC(=O)c1cc(Cl)ccc1[N+](=O)[O-]	2391	3.9	-1	2	-4	-18	7
Cc1cc(Cl)ccc1OCC(=O)N1CCN(C)CC1	2789	4.2	6	-4	-9	-10	7
CCCN(C(=O)COC(=O)CC1CCCCC1)c1c(N)n(Cc2ccccc2)c(=O)[nH]c1=O	.	0.5	-4	3	3	-51	0
Cc1nc2c(n1O)CCCC2=NO	.	3.1	2	3	.	.	-1
CCOC(=O)c1c(O)c2ccccc2n(CC)c1=O	4318	7.7	9	12	5	-15	8
COc1ccc(C(=O)Cn2c(NCCCO)nc3ccccc32)cc1OC	4178	.	.	.	-3	-20	.
Cc1cc(C)cc(SCc2noc(C(=O)NCCC(C)C)c2C(=O)NCCC(C)C)c1	4058	-4.0	8	-28	13	-8	5
COc1cccc(Oc2ccc(C(F)(F)F)cc2N)c1	2102	-4.9	2	4	4	-14	13
Cc1cccc(NC(=O)CN2C(=O)NC3(CCCCCCC3)C2=O)c1C	3921	-0.7	2	6	.	-25	4
C=C(C)c1cccc(C(C)(C)NC(=O)Nc2ccccc2OCC)c1	2396	0.2	5	5	2	-13	9
O=C(CN1CCCCCC1)Nc1c(Cl)cc(Cl)cc1Cl	3336	4.1	-3	5	-5	-19	3
Cc1ccc(NC(=S)NC(NC(=O)c2ccccc2C)C(Cl)(Cl)Cl)c(C)c1 (configuration not stated)	4514	-7.1	1	-33	-6	2	0
COc1ccc(CNc2nc3nc(C)c(Cl)c(C)n3n2)cc1	4098	1.3	3	-2	3	-24	1
COc1ccc(NC(=O)C(=O)NNC(=O)COc2ccc(Cl)cc2)c(OC)c1	3987	0.1	-3	9	2	-10	1
COc1cc(OC)cc(-c2nnc(SCc3cccnc3)o2)c1	9140	2.2	4	-4	-5	-17	18
CCN(CC)C(=O)C(=O)Nc1cc(C(F)(F)F)ccc1Cl	3183	7.6	.	11	4	2	.
O=C(c1ccc(-c2ccccc2Cl)o1)N1CCCCCCC1	5131	6.0	-1	2	.	-65	-4
CC1(c2ccc(OC(F)F)cc2)NC(=O)N(CC(=O)Nc2cccc(F)c2)C1=O (configuration not stated)	2966	0.8	-1	2	14	-1	4
COc1ccccc1/C=C\C=N\n1c(-c2ccc(Cl)cc2Cl)n[nH]c1=S	2428	.	.	.	-5	-38	.
CCOC(=O)C1=C(C)n2c(sc(=Cc3cccc([N+](=O)[O-])c3)c2=O)=NC1c1ccc(O)c(OC)c1 (configuration not stated)	.	-6.5	5	-2	.	.	-2
O=C(NN=Cc1ccc(O)c([N+](=O)[O-])c1)C(O)(c1ccccc1)c1ccccc1	.	-1.9	31	-4	.	.	13
CC(=O)Nc1ccc(SCCCC(=O)c2ccccc2)cc1	4592	5.3	3	-1	-11	-36	12

# An excerpt from above in order of formula weight, smallest number first.
smiles	Autofluor counter	RN4220 kill	Mtb hypoxia inh growth	Sa ugtP lethal	BJeLR viability	PrP 5UTR inh	Mtb hypoxia inh
CCN(CC)C(=O)C(=O)Nc1cc(C(F)(F)F)ccc1Cl	3183	7.6	.	11	4	2	.
Cc1cc(C)cc(SCc2noc(C(=O)NCCC(C)C)c2C(=O)NCCC(C)C)c1	4058	-4.0	8	-28	13	-8	5
CCCN(C(=O)COC(=O)CC1CCCCC1)c1c(N)n(Cc2ccccc2)c(=O)[nH]c1=O	.	0.5	-4	3	3	-51	0

# Other compounds
smiles	Autofluor counter	RN4220 kill	Mtb hypoxia inh growth	Sa ugtP lethal	BJeLR viability	PrP 5UTR inh	Mtb hypoxia inh
CCOc1nc2ccccc2cc1/C=C/C(=O)O	4103	5.4	6	-2	-5	-12	-6
Cc1nccc(-c2cccc(NC(=O)c3ccccc3Cl)c2)n1	4329	-0.4	-1	6	0	-18	0
Cc1ccc(S(=O)(=O)CCC(=O)N2CCN(c3ccc([N+](=O)[O-])cc3)CC2)cc1	5300	0.4	-10	11	-5	-6	8
CC(C)c1ccc(NC(=O)CCNC(=O)N2C[C@H]3C[C@@H](C2)c2cccc(=O)n2C3)cc1	5906	2.7	.	-4	-4	1	.
Cc1cc(C)nc(NCC(O)COc2ccccc2C)n1 (configuration not stated)	4222	4.3	5	-5	5	-8	19
COc1ccc(CNC(=O)CCS(=O)(=O)Cc2ccc(C)cc2)c(OC)c1	4959	2.7	7	-2	11	35	-1
COc1ccccc1CNC(=O)CSc1nc2c(oc3ccccc32)c(=O)n1CC1CCCO1 (configuration not stated)	.	0.5	1	2	10	-15	-5
Cc1ccc(NC(=O)COC(=O)c2cccnc2)cc1	5022	0.1	-3	1	6	-9	3
Cc1onc(-c2ccccc2)c1C(=O)NCCc1ccncc1	3627	3.8	-12	4	2	-17	6
CC(=O)OCCOCn1cnn2c(=O)c(Br)c(C)nc12	4533	1.9	11	0	-3	-2	-4
Cn1c(CNC(=O)c2ccccc2F)cc2ccccc21	3837	8.5	1	7	27	-53	10
Cn1c(=O)c2c(nc(NN=Cc3ccc(OC(=O)c4ccco4)cc3)n2Cc2ccccc2Cl)n(C)c1=O	.	0.4	-3	-4	.	.	-8
O=C(Nc1ccc(Cl)cn1)c1cccc(OCc2ccccc2)c1	3911	3.3	8	36	-1	-17	2
O=C(COC(=O)CNC(=O)c1ccccc1F)NC1CC1	.	6.7	-6	13	.	.	1
CCOC(=O)c1cnc(-n2nc(C)cc2C)nc1N1CC(C)OC(C)C1 (configuration not stated)	21874*	4.6	5	-11	3	-6	17
CCOC(=O)N1CCN(C(=O)c2ccc3c(=O)n(CCc4ccccc4)c(=O)[nH]c3c2)CC1	4072	4.3	24	-4	5	-26	7
Cc1cccc(C2=NN(c3ccc(Br)cc3)[C@@H](C(=O)N3CCOC3=O)[C@@H]2c2ccc(Cl)cc2)c1	3570	2.3	4	7	.	-23	6
COc1cccc(NC(=O)CSc2nnc(-c3cc(C)[nH]n3)n2N)c1	5307	2.2	-4	5	-1	-7	-1
CC1CCN(C(=O)c2ccc(NS(=O)(=O)c3ccc4[nH]c(=O)[nH]c4c3)cc2)CC1	?	5.6	0	15	-9	-27	-2
NNC(=O)[C@H]1C[C@@H]1c1ccccc1	2645	1.9	-3	4	-8	-15	4
CCOC(=O)c1cc2c(c(CCO)n1)[C@@H](CCO)N(S(=O)(=O)C(C)(C)C)C2	3711	1.8	2	1	.	-7	-6
CC1=C(CO)C(=O)OC([C@@H](C)C2CC[C@H]3C4C[C@H]5O[C@]56[C@@H](O)C=CC(=O)[C@]6(C)C4CC[C@]23C)C1 (some centres not stated)	5155	7.4	.	-4	38	-10	.
Fc1ccc2cnc(-c3ccccc3)c(-c3ccc(C(F)(F)F)cc3)c2c1	3532	-2.4	21	-7	.	-27	7
COc1cc(C(=O)O[C@H]2CC(C)=CC[C@@]3(C)CC[C@@](O)(C(C)C)[C@H]23)ccc1O	3977	6.6	-2	-21	3	-21	10
CN(C)c1cccc(C(=O)Nc2cccc(S(=O)(=O)NC3=NCCC3)c2)c1	6232	2.0	-11	3	6	-30	3
COc1ccc(/C(N)=N/OC(=O)Cc2cccs2)cc1	2105	17	10	13	11	-96	3
COc1ccc(CC(=O)OCC(=O)Nc2ncc(Cl)c(C)c2Cl)cc1	4821	-0.5	-2	-1	.	1	1
Cc1cc(NC(=O)CCN2C(=O)C3C4C=CC(C4)C3C2=O)c2ccccc2n1 (configuration not stated)	2719	-4.1	.	2	-4	1	.
Cc1cc(NC(=O)COC(=O)c2ccccc2O)no1	6668	4.2	4	4	.	-10	10
Clc1cc(Cl)c2nc(N3CCCCC3)sc2c1	4085	19	7	10	5	-94	1
CC(C)(C)NC(=O)C(c1ccc(F)cc1)N(CCc1ccccc1)C(=O)c1ccn[nH]1 (configuration not stated)	4189	3.4	4	-11	1	-21	-4
Cc1nn(CC(=O)NCCCN2CCC(Cc3ccccc3)CC2)c(=O)c2cc(-c3ccccc3)nn12	5653	0.8	13	-6	4	-3	7
COc1ccc(OC)c2sc(NC(=O)c3ccc(S(=O)(=O)N4CCOCC4)cc3)nc12	5783	11	7	6	3	6	-9
CC(C(=O)Nc1ccc(S(=O)(=O)N2CCCC2)cc1)N(C)Cc1ccc(F)cc1 (configuration not stated)	3055	0.8	8	7	.	-2	10
CN(Cc1nccn1C)C(=O)c1cc(COc2ccc3ncccc3c2)on1	4150	2.5	4	4	6	-23	17
O=S(=O)(c1cc(F)ccc1F)N1CCN(c2ncnc3ccccc23)CC1	3441	9.4	8	3	.	-37	-1
O=C(CN1CCC(C(=O)c2ccc3c(c2)OCCO3)CC1)NCc1ccccc1	5913	1.7	2	8	10	-10	3
CN(CC(=O)Nc1ccc(Br)cc1)Cc1ccccc1	3608	-2.2	.	5	-3	-20	.
Cc1ccc(-c2noc(CN(C(=O)c3cccs3)C(C)C)n2)cc1	9078	3.0	5	16	6	-31	8
CC(CC(=O)N1CCc2ccccc21)S(=O)(=O)c1ccc2c(c1)NC(=O)CO2 (configuration not stated)	4088	-0.8	-12	-1	-1	-9	-6
CCOP(=O)(OCC)C(Nc1ccccn1)c1ccc(F)cc1 (configuration not stated)	2144	4.7	7	3	2	-13	4
COc1ccc(C(=O)C[n+]2ccc(-c3nnc4n3CCCCC4)cc2)cc1	?	2.1	0	1	3	-25	-7
COc1ccc(C2CC(=O)C=C(c3cccc(CO)c3)C2)cc1 (configuration not stated)	.	8.0	8	1	.	.	13
CCn1c(C(O)c2cccc(OC)c2OC)nc2ccccc21 (configuration not stated)	2108	-3.1	.	-6	-6	-22	.
C[C@@H]([C@@H](O)c1ccccc1)N(C)C(=O)Cc1ccccc1	3015	.	.	.	13	1	.
O=S1(=O)[C@H]2C[C@@H]3C=C[C@@]2(CN1Cc1cccc(F)c1)O3	2987	.	.	.	6	-28	.
Cc1ccc(N=C2SC(C(=O)Nc3ccc(OC(F)(F)F)cc3)C(N)=C2C(=O)Nc2c(C)cc(C)cc2C)cc1 (configuration not stated)	2155	100*	3	100*	.	-12	8
COC(=O)C/C(O)=C(/N=Nc1cccc(C(F)(F)F)c1)C(=O)OC	5310	-1.8	1	-3	5	0	13
COc1ccc(NC(=O)C(=O)NNC(=O)C(C)Oc2ccc(Cl)cc2Cl)cc1 (configuration not stated)	3665	14	2	-7	0	-14	8
Cc1c(NC(=O)CC(=O)Nc2c(C)n(C)n(-c3ccccc3)c2=O)c(=O)n(-c2ccccc2)n1C	7785	2.2	5	8	-7	-6	1
COc1ccc(-c2coc3cc(OC(C)=O)ccc3c2=S)cc1	3692	1.2	11	-12	.	-42	9
O=C(CCc1ccc(S(=O)(=O)NC2CCCCC2)cc1)NCc1ccccc1	2618	0.7	.	1	-2	2	.
CCOC(=O)c1c(C)n(C)c2cc(Br)c(O)c(O)c12	4205	3.7	23	-1	8	.	11
Clc1cccc(Cl)c1CSc1nnc(-c2sccc2-n2cccc2)o1	3651	10	.	71	-4	-11	.
[O-][N+]1=C2CCCC(=NO)C2=NC12CCCCC2	.	1.8	-2	16	.	.	-4

# Bioassay records from PubChem BioAssay.
